Compound activity (PubChem BioAssay)
MIN6 prolif = inducers of MIN6 beta-cell proliferation, primary screen, ATP luminescence, uHTS; MIN6 cells proliferation, ATPlite luminescence, 48 h; cells starved in 0.2% serum; 100% = growth in 10% serum; proliferation, % at 10 µM; actives 0.29% (n = 330,000);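 active means compounds whose signal lies at least 3.5 SD above the mean of all wells on their plate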;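 further: 0% = DMSO-treated cells in low-serum medium and 100% = 10% serum control; some compounds called inactive have numbers as strong as hits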
SENP1 inh = human SENP1 catalytic domain inhibitors, primary screen, biochemical, FRET, uHTS. Sentrin-specific protease 1 (Homo sapiens), Q9P0U3. recombinant SENP1 catalytic domain, CyPet-SUMO1-YPet FRET cleavage. inhibition, % at 10 µM. actives 0.21% (n = 360,000). AID 624204, 2012;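 active means inhibition at least 30% at 10 µM, raw YFP signal under a set limit, fluorescence ratio 0.5 to 1.5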;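 further: 0% = enzyme with DMSO and 100% = no enzyme wells; some results filed as inactive read as strong as hits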
Target sequence (Q9P0U3 419-644 limits assumed): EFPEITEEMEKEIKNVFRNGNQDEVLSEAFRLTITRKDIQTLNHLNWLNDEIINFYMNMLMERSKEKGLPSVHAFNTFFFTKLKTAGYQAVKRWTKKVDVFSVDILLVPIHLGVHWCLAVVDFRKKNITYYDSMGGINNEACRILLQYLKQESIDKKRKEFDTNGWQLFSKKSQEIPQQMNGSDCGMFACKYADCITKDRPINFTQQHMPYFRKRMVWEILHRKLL
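Controls: no-enzyme wells low, DMSO-plus-enzyme wells high control. Test system: human recombinant His6-tagged SENP1 catalytic domain enzyme. Reagent: SFCypet-SUMO1-SFYpet FRET protein substrate, 25 nM final. Doses: one dose per compound, 10 µM, 0.5% DMSO. Detection: FRET, CFP and YFP emission. Timing: 50 min reaction at room temperature.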
SENP8 inh = human SENP8 protease inhibitors, primary screen, biochemical, fluorescence, Nedd8 protein substrate, uHTS. Sentrin-specific protease 8 (Homo sapiens), Q96LD8. recombinant SENP8. inhibition, % at 20 µM. actives 0.64% (n = 360,000); in the data active means inhibition mostly above about 40%, no sharp cut-off; inactive means mostly below about 27%
Target sequence (Q96LD8 whole entry, looked up): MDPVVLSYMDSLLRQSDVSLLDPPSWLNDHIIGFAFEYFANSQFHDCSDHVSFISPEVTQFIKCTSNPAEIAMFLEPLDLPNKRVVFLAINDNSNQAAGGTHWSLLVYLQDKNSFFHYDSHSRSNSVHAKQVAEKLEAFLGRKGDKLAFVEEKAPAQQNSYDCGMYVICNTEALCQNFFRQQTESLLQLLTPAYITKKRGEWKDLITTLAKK
PfG6PD inh = PfG6PD enzyme inhibitors, primary screen, biochemical, fluorescence intensity, uHTS | glucose-6-phosphate dehydrogenase-6-phosphogluconolactonase (Plasmodium falciparum 3D7) | PfGluPho enzyme, NADPH resazurin-diaphorase fluorescence | inhibition, % at 20 µM | actives 0.78% (n = 350,000) | AID 504690, 2011;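 active means inhibition reaching at least a set limit at 20 µM in the primary screen, cut at about 59% in these data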;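 further: 0% = DMSO wells with substrate and 100% = DMSO wells lacking glucose-6-phosphate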
HKDC1 inh = HKDC1 hexokinase inhibitors, primary screen, biochemical, fluorescence, uHTS. Q2TB90. recombinant HKDC1, G6PDH/diaphorase resazurin coupled fluorescence. inhibition, % at 20 µM. actives 0.16% (n = 340,000). AID 493160, 2011;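 active means inhibition above about 35% when tested at 20 µM, limit read from the data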;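 further: plate controls were DMSO wells with enzyme for no effect and DMSO wells lacking enzyme for full effect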
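Test system: recombinant HKDC1 (HK5) hexokinase enzyme, produced in-house / Doses: 20 µM test compound, 1% DMSO / Timing: 90 min, room temperature / Detection: G6PDH/diaphorase-coupled fluorescence, 1 mM NADP, 100 µM resazurin, 525/613 nm / Control set: DMSO wells with and without enzyme mix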
UBC13 polyUb = UBC13 polyubiquitin chain formation inhibitors, primary screen, biochemical, TR-FRET, uHTS; Ubiquitin-conjugating enzyme E2 N (Homo sapiens), P61088; inhibition, % at 20 µM; actives 0.47% (n = 330,000); in the data active means inhibition above about 45%, passing the limit was not always enough
Target sequence (P61088 whole entry, looked up): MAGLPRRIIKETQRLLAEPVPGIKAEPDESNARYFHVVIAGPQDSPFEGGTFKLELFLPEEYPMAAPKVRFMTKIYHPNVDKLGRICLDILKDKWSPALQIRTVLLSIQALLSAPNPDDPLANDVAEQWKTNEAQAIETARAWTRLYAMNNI
* marks the source's active call; other numbers are inactive results; i = inactive; / = not tested or not shown. An excerpt (hit frequency here may not be typical).

Fields – MIN6 prolif	SENP1 inh	SENP8 inh	PfG6PD inh	HKDC1 inh	UBC13 polyUb
- COc1ccc(OC)c(-n2c(-c3cc(-c4ccc(F)cc4)n[nH]3)n[nH]c2=S)c1
    -2	4	-22	40	-3	1
- Cc1cc(O)c(C(=O)/C=C/c2cccc([N+](=O)[O-])c2)c(=O)o1
    -1	-3	7	-5	10	-10
- COc1ccc(NS(=O)(=O)c2ccc(NC(=O)C(C)(C(F)(F)F)C(F)(F)F)cc2)nn1
    0	2	2	-15	5	-5
- COc1cc(OC)cc(C(=O)Nc2ccc(S(=O)(=O)Nc3ccccn3)cc2)c1
    -1	1	-146	6	-3	7
- CCOC(=O)CNC(=O)CSc1nnc(COc2ccc(Cl)cc2)n1CC
    -1	2	33	13	-1	-5
- CC1=C(C(=O)Nc2ccccc2)C(c2cccnc2)n2ncnc2N1 (stereo not given)
    -2	3	8	1	-4	-4
- CC1(C)Cc2nc(-c3ccccc3)nc(SCC(=O)N3CCCC3)c2CO1
    0	1	14	-2	-7	5
- COc1ccccc1/C=C1\C(=O)Nc2ccccc21
    -4	3	29	20	9	-1
- O=S(=O)(Cc1cccc(C(F)(F)F)c1)c1ncn[nH]1
    0	0	6	-13	-13	-12
- O=C(NC1CCCCCC1)C1CCN(C(=O)c2ccc(Br)cc2)CC1
    3	0	-6	-3	-6	4
- Cc1ccc2c(CC(=O)NNC(=O)c3ccncc3)coc2c1
    3	-1	6	3	-5	-4
- Cc1ccc(-c2cc3nc(C)cc(C)n3n2)cc1
    -3	-1	-386	32	-5	9
- CC(=O)N/C(=C\c1ccccc1)C(=O)OC(C)C(=O)NCc1ccccc1 (stereo not given)
    -3	-1	3	-9	-4	-1
- O=C(Cn1cnc(S(=O)(=O)N2CCCCC2)c1)NCc1ccco1
    -2	0	6	-6	-6	5
- CCOCCCNC(=O)NC12CC3CC(CC(C3)C1)C2
    -1	0	-3	-9	-4	-13
- O=C(Cn1cnc2sc3c(c2c1=O)CCCC3)NCC(=O)Nc1c(F)cc(F)cc1Br
    -1	0	6	-6	-4	2
- Cc1ccnc(NS(=O)(=O)c2ccc(NS(=O)(=O)c3ccc([N+](=O)[O-])cc3)cc2)n1
    -3	4	12	-22	-2	-6
- CCN1CCCC1CNS(=O)(=O)c1ccc(F)c(Cl)c1 (stereo not given)
    -3	0	16	-15	1	0
- Cn1c(CC(=O)NNC(=O)c2ccccc2[N+](=O)[O-])nc2ccccc21
    2	1	5	-1	4	-15
- CC1CCCN(C2(O)C(=O)Nc3ccc(Br)cc32)C1 (stereo not given)
    -5	-5	14	-3	3	-5
- CN(C)CCSc1nc(-c2ccccc2)nc2c1COC(C)(C)C2
    -4	-1	20	2	-8	12
- Cc1nccc(-c2ccc3c(c2)OCO3)n1
    3	0	-413	-5	-1	1
- COC(C(=O)Nc1ccccc1F)c1ccccc1 (stereo not given)
    -3	2	24	-10	5	4
- COc1cc(S(=O)(=O)NCc2ccc3c(c2)OCO3)c(OC)cc1C
    2	-3	5	-3	-7	-4
- COCCn1nnnc1C(c1cc2cc(C)ccc2[nH]c1=O)N1CCc2ccccc21 (stereo not given)
    -1	-134	-22	27	18	-4
- C/C(=N/NC(=O)CC(=O)N/N=C(\C)c1ccc([N+](=O)[O-])cc1)c1ccc([N+](=O)[O-])cc1
    4	3	31	0	-6	-5
- COc1cc(C(=O)NCCc2c[nH]c3ccccc23)ccc1OCc1c(C)noc1C
    -4	-2	29	-4	1	0
- CCc1ccc(NCc2cc3c(C)nn(-c4ccccc4)c3[nH]c2=O)cc1
    -4	-3	-88	-9	0	4
- Cc1ccccc1Nc1ccc(S(=O)(=O)N2CCOCC2)cc1[N+](=O)[O-]
    -3	3	27	3	-8	-1
- CC1CC(C)CN(C(=O)COC(=O)c2ccc(S(=O)(=O)N(C)c3ccccc3)cc2)C1 (stereo not given)
    -2	0	18	22	1	12
- CC1(C)Cc2ccccc2C(/C(=N/O)C(N)=O)=N1
    -1	2	3	-10	1	1
- CC(=O)Nc1nnc(CCN2CCCCC2)s1
    -3	0	9	-9	-7	-6
- C/C(=N/NC(=O)CN1CCN(Cc2ccccc2)CC1)c1ccc([N+](=O)[O-])cc1
    -3	2	24	-7	-7	-1
- CC1CCN(S(=O)(=O)c2cn(CC(=O)N3CCN(c4cccc(C(F)(F)F)c4)CC3)cn2)CC1
    -1	4	2	0	-6	0
- Cn1c(/C(C#N)=C/c2ccc(O)cc2)nc2ccccc21
    -1	-46	-411	-2	-4	-7
- C/C(=N\NC(=O)c1ccc(NS(=O)(=O)c2cccs2)cc1)c1cccs1
    3	-3	-20	-9	-1	-8
- Cc1[nH]c2ccccc2c1C(=O)C(=O)N1CCN(c2ccccc2Cl)CC1
    -2	0	16	-6	1	-7
- COc1ccc(C(=O)Oc2cc(/C=N/NS(=O)(=O)c3ccc(C)cc3)ccc2OC)cc1
    0	-1	34	-4	0	-7
- CCN(CC)c1ccc(C(=O)OCC(=O)c2ccco2)cc1
    -2	-3	20	-5	0	-19
- Cc1ccc(CN(C)C(=O)COc2ccc(S(=O)(=O)N3CCCC3)cc2[N+](=O)[O-])c(C)c1
    -6	0	24	14	-1	8
- O=C1COc2ccc(C(=O)NCc3ccco3)cc2N1
    -2	2	-4	-3	-5	5
- O=C(Nc1ccncc1NC(=O)c1cccc([N+](=O)[O-])c1)c1cccc([N+](=O)[O-])c1
    -2	1	9	2	14	-10
- CSc1cccc2sc(NC(=O)C3=COCCO3)nc12
    2	-3	i	27	0	6
- Cc1ccc(NC(=O)c2cc3c(s2)CCC3)cc1S(=O)(=O)N1CCOCC1
    -3	0	-1	14	0	3
- COc1ccccc1NC(=O)C(=O)N(c1cccnc1)C(C(=O)NC(C)(C)C)c1ccccc1F (stereo not given)
    2	0	4	-2	12	1
- CC(=O)NS(=O)(=O)c1cccnc1Nc1cccc(Cl)c1C
    -2	-1	-3	4	8	20
- CCOC(=O)c1ccccc1NC(=O)c1cccc([N+](=O)[O-])c1
    0	-2	22	-11	1	7
- COc1cccc(OC)c1C(=O)NNC(=O)c1ccccc1-n1cccc1
    2	-3	-14	-1	-12	0
- Cc1ccc(C(=O)CSc2nc(O)cc(=O)[nH]2)cc1C
    -1	0	11	-9	-8	0
- NS(=O)(=O)c1cccc(NS(=O)(=O)c2cccc(C(F)(F)F)c2)c1
    1	0	0	-15	0	7

Additional entries:
Fields – MIN6 prolif	SENP1 inh	SENP8 inh	PfG6PD inh	HKDC1 inh	UBC13 polyUb
- Cn1c(-c2ccc(F)c(F)c2)cc2onc(-c3ccccc3)c2c1=O
    -4	3	-6	-1	-2	4
- CCN1CCCC1CNC(=O)c1cc(S(=O)(=O)N(C)C)ccc1Cl (stereo not given)
    0	-1	6	1	-6	3
- O=C(/C=C/NNC(=O)c1cccc(Br)c1)c1ccccc1
    -7	-4	21	-6	1	-9
- COC(=O)N/N=C\c1cc2c(cc1Br)OCO2
    1	-1	19	10	-3	-1
- O=C(NCc1ccco1)C1(S(=O)(=O)c2ccccc2)CC=CC1
    -3	4	15	17	-6	-4
- COc1ccc(C2/C(=C(/O)c3ccc(F)cc3)C(=O)C(=O)N2CCCN2CCOCC2)cc1OC (stereo not given)
    -2	-3	-5	3	-3	-12
- Cc1ccc2nc(NCc3ccccc3)c(C=NCc3ccccc3)c(=O)n2c1
    -3	-7	-84	17	3	8
- Cc1cc(OCc2nc(-c3ccc(NC(=O)c4cccnc4)cc3)no2)ccc1Cl
    -5	-1	3	14	17	-1
- CCOC(=O)c1cc2occc2n1CC(=O)N1CCN(C(=O)c2ccco2)CC1
    -1	5	6	13	-6	-4
- CN1CCN(c2oc(/C=C/c3ccccc3)nc2C#N)CC1
    2	0	-466	6	-4	2

Ordered by SMILES length (low to high): three of the compounds above.
Fields – MIN6 prolif	SENP1 inh	SENP8 inh	PfG6PD inh	HKDC1 inh	UBC13 polyUb
- CN(C)CCSc1nc(-c2ccccc2)nc2c1COC(C)(C)C2
    -4	-1	20	2	-8	12
- O=C(Cn1cnc(S(=O)(=O)N2CCCCC2)c1)NCc1ccco1
    -2	0	6	-6	-6	5
- O=C(Nc1ccncc1NC(=O)c1cccc([N+](=O)[O-])c1)c1cccc([N+](=O)[O-])c1
    -2	1	9	2	14	-10

New compounds follow.
Fields – MIN6 prolif	SENP1 inh	SENP8 inh	PfG6PD inh	HKDC1 inh	UBC13 polyUb
- O=C(c1cccs1)N(C(=O)c1cccs1)c1ccccn1
    -2	4	2	12	-7	4
- CCCCOC(=O)c1ccc(NC(=O)c2cnccn2)cc1
    -2	1	17	18	2	-10
- C/C(=N\Nc1cc(C)nc(NCc2ccccc2)n1)c1ccc([N+](=O)[O-])cc1
    -3	-2	18	10	-6	-6
- O=C(CSc1n[nH]c(-c2cccs2)n1)NC1CCS(=O)(=O)C1 (stereo not given)
    0	2	7	-1	-10	0
- COc1ccccc1-c1noc(-c2ccco2)n1
    -2	/	/	13	6	5
- O=C(Nc1ccc2c(c1)C(=O)N(C1CCCCC1)C2=O)C1CCCO1 (stereo not given)
    -1	1	i	2	-5	3
- COc1ccccc1NC(=O)C1=C(C)Nc2nnnn2C1c1cccc(C)c1 (stereo not given)
    -1	1	2	-12	-6	-3
- O=C1COc2ccc(C(=O)c3ccccc3C(=O)NCc3ccccc3)cc2N1
    0	0	19	12	1	4
- Cc1ccc(C(=O)C=CNNC(=O)c2ccccc2)cc1
    -2	-9	21	3	-9	-14
- O=C(CNC(c1ccccc1)c1ccccc1)Nc1ccccc1Br
    -6	0	15	-25	-1	4
- CS(=O)(=O)c1ccc2nc(NC(=O)C3CC(=O)N(c4ccc(F)cc4)C3)sc2c1 (stereo not given)
    3	2	4	-16	4	-5
- C[C@H](NS(=O)(=O)c1ccc(Cl)cc1)C(=O)OCC(=O)c1ccc[nH]1
    -1	-2	13	-9	-3	2
- Nc1cc(=O)nc(SCC(=O)Nc2ccccc2Cl)n1-c1ccccc1
    2	0	6	-10	-10	-5
- O=C(Nc1nnc(CCN2CCCCC2)s1)c1ccc(Br)cc1
    -2	-3	6	1	-4	-2
- Cc1ccc(CNC(=O)Cn2cnc(S(=O)(=O)N3CCC(C)CC3)c2)o1
    3	-2	4	-1	1	-5
- Cc1ccc(Cl)c2sc(NC(=O)C3=COCCO3)nc12
    4	1	-13	13	7	7
- COc1cc2cnc(C3=CCCCC3)cc2cc1OC
    0	0	-98	36	0	-6
- COc1ccc(-c2cc3onc(-c4c(Cl)cccc4Cl)c3c(=O)n2C)cc1
    -6	3	11	-6	-1	4
- COc1cccc2cc(C(=O)CS(=O)(=O)c3ccc(C(C)(C)C)cc3)c(=O)oc12
    0	-18	3	14	17	-8
- CC1CCN(C2(O)C(=O)Nc3ccc(Br)cc32)CC1 (stereo not given)
    0	-5	19	18	-1	14
- COc1cc(OC)cc(C(=O)N[C@H](C(=O)OCC(=O)c2ccc3c(c2)NC(=O)CO3)C(C)C)c1
    2	0	0	11	-1	-4
- N#Cc1c(/N=C/c2cccnc2)sc2c1CCCC2
    -1	-1	32	40	9	3
- Cc1cc(C(F)(F)F)nc(-n2cc(-c3ccccc3)nn2)n1
    3	3	8	-12	-1	3
- CN1CCNC(=O)C1CC(=O)NCCc1ccccc1F (stereo not given)
    6	0	-8	17	-3	-4
- C/C(=N\NC(=O)c1ccc(NS(=O)(=O)c2cccs2)cc1)c1ccc(Cl)cc1
    -1	-2	0	16	-2	-11
- O=C1COc2ccc(C(=O)CSc3nnc(NCc4ccccc4)s3)cc2N1
    -3	1	16	10	-5	-10
